Screens: PubChem, ICCB-Longwood Screening Facility, Harvard Medical School
CapD inh: inhibitors of Bacillus anthracis CapD enzyme. purified CapD enzyme, fluorescence intensity read-out; hits give low values; some hits fall short of the stated cut. z-score (test concentration not listed). 0.23% of 140,000 active. AID 492967;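 active = z-score under -4 in either of two replicates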;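 note: stock transfer was 100 nL into about 40 µL; score is relative to mean and spread of the plate; one replicate is shown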
AID504770: growth inhibitors of E. coli YBA685 in a screen for V. cholerae RctB (chromosome II replication) inhibitors. E. coli YBA685 rctB-dependent plasmid, OD600 growth, 3 h; hits give low values. 0.27% of 130,000 active. AID 504770. z-score (concentration not given with the values);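 active = z-score under -2 on both plates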;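 note: wells of about 30 µL received 100 nL stock; score is relative to mean and SD of the test wells; the first replicate is given; strong numbers were not always called active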
The depositor's hits bear a star; nt = not tested or not shown; & = joins results of further samples. These rows are one share of the data; rates above refer to the full screens.

SMILES	CapD inh	AID504770
COCCN(C1CCN(S(=O)(=O)c2ccc(NC(C)=O)cc2)CC1)S(=O)(=O)c1ccccc1	0.085	nt
O=C(CCNS(=O)(=O)c1ccccc1)Nc1ccccc1	0.42	-0.45
Brc1ccc(-c2nc(-c3ccccc3)c(-c3ccc(-c4ccccc4)cc3)[nH]2)cc1	43	nt
CC(=O)N(c1ccc(C(C)C)cc1)C1C=CS(=O)(=O)C1 (centres undefined)	0.54	-0.3
CCOC(=O)c1sc(-c2ccccc2)cc1N	14	0.05
CC(C)Cc1ccc(C(C)C(=O)Nc2ccc(Cl)cc2)cc1 (centres undefined)	0.44	-0.7
C=C(NCc1ccco1)c1ccc(Cl)cc1	0.18	0.4
COc1ccccc1CNC(=O)c1sc2ncn(CC(=O)Nc3cccc(C(F)(F)F)c3)c(=O)c2c1C	0.035	nt
COc1ccc(OC)c(C(=O)COC(=O)c2ccc3ccccc3n2)c1	nt	-0.2
NC(=NC(=O)c1ccccc1)c1ccc(C(F)(F)F)cn1	-0.095	0.55
O=C(CC12CC3CC(CC(C3)C1)C2)Nc1ccc(N2CCN(C(=O)c3ccco3)CC2)cc1	-0.12	-0.5
CCCN1CCN(c2nc(C(=O)OCC)nc3sc4c(c23)CCCC4)CC1	22	nt

In the list so far, two contain an aryl methoxy group.
SMILES	CapD inh	AID504770
COc1ccccc1CNC(=O)c1sc2ncn(CC(=O)Nc3cccc(C(F)(F)F)c3)c(=O)c2c1C	0.035	nt
COc1ccc(OC)c(C(=O)COC(=O)c2ccc3ccccc3n2)c1	nt	-0.2

Continuation.
SMILES	CapD inh	AID504770
OCC1(CO)COC2(CCN(Cc3ccccc3)CC2)N1	0.43	-0.7
CCOC(=O)C/C(C)=N/n1c(C)cc(C)c(C#N)c1=O	nt	1.6
COc1ccc(Br)cc1C=Nc1ccc2[nH]c(=O)[nH]c2c1	nt	-0.55
O=C(CS(=O)(=O)c1ccc2ccccc2c1)N1CCCCCC1	nt	-0.8
CCN(CC)S(=O)(=O)c1ccc2oc(C(=O)Nc3ccc(C)c(C)c3)c(C)c2c1	0.9	-0.2
COC(Cn1c(SCc2ccc(Cl)cc2)nnc1-c1ccccc1)OC	10	-1.1
c1cc(-c2cc(-c3nc4c5c(ncn4n3)CCC5)[nH]n2)ccn1	-0.3	-0.65
COc1ccc(S(=O)(=O)N2CCN(c3ccc(C)cc3C)CC2)cc1	-0.02	nt
Cc1csc2sc(C=N/C(C#N)=C(\N)C#N)c(C)c12	-0.23	0.85
CCOc1cc(C=C2C(=O)OC3(CCCC3)OC2=O)cc(I)c1O	-0.89	-0.3
CCOc1ccc(N2C(=O)C(OC)=C(C(=O)c3ccccc3)C2(Nc2cccc(C(F)(F)F)c2)C(=O)OC)cc1 (centres undefined)	-0.025	nt
Cn1nc(-c2ccc(Cl)cc2)[nH]c1=O	0.92	-1.2

Record cards (already shown). Screens in order: CapD inh | AID504770
`Cc1csc2sc(C=N/C(C#N)=C(\N)C#N)c(C)c12` is listed as -0.23 | 0.85
`O=C(CS(=O)(=O)c1ccc2ccccc2c1)N1CCCCCC1` is listed as nt | -0.8
`CCOc1cc(C=C2C(=O)OC3(CCCC3)OC2=O)cc(I)c1O` is listed as -0.89 | -0.3
`CCN(CC)S(=O)(=O)c1ccc2oc(C(=O)Nc3ccc(C)c(C)c3)c(C)c2c1` is listed as 0.9 | -0.2
`Cn1nc(-c2ccc(Cl)cc2)[nH]c1=O` is listed as 0.92 | -1.2

(more compounds)
SMILES	CapD inh	AID504770
O=C(CSc1nccc(-c2cccs2)n1)c1ccccc1	-0.65	-0.4
CCc1ccccc1-n1ncc2c1ncn1nc(-c3ccncc3)nc21	-1.8	0.7
O=C(CNC(=O)C1CCCCC1)Nc1nc(CC23CC4CC(CC(C4)C2)C3)cs1	2	-0.45
O=C(c1ccc(F)cc1)n1ccc(-c2ccccc2OCc2ccc(F)cc2)n1	5.3	nt
CCC(C)(C)C1CCc2nc3ccccc3c(C(=O)OCC(N)=O)c2C1 (centres undefined)	-0.02	1.2
O=C(O)CSc1nc2ccccc2s1	0.09	nt
COc1ccccc1NC(=O)CN(Cc1ccco1)C(=O)c1cc(C2CC2)nn1-c1ccccc1	nt	1.9
Cc1ccc(S(=O)(=O)C(C#N)=C2SCCS2)cc1	-0.18	-0.25
S=C(N/N=C/C=C/c1ccccc1)NC1CC2C=CC1C2 (centres undefined)	-0.45	nt
O=C(CSc1ncnc2sc3c(c12)CCC3)NCc1ccc2c(c1)OCO2	-0.36	nt
CSC(SC)=C(C#N)c1ccc(Cl)cc1Cl	-0.41	nt
CN(C)c1c(/C=C(/C#N)S(C)(=O)=O)cc(/C=C(/C#N)S(C)(=O)=O)c(N(C)C)c1C#N	-3.6	-0.75

An excerpt of these results, with two lines to a compound.
Every second line gives: CapD inh	AID504770
O=C(CSc1ncnc2sc3c(c12)CCC3)NCc1ccc2c(c1)OCO2
 : -0.36	nt
CC(C)Cc1ccc(C(C)C(=O)Nc2ccc(Cl)cc2)cc1 (centres undefined)
 : 0.44	-0.7

Continuation.
SMILES	CapD inh	AID504770
COc1ccc(CN(Cc2nc3ccccc3c(=O)[nH]2)C(=O)Nc2ccccc2)cc1	nt	-0.4
O=C(O)/C=C/C(=O)N1CCN(C(=O)/C=C/C(=O)O)CC1	0.55	0.05
COc1ccc(OC)c(N(CC(=O)N2CCN(c3ccccc3F)CC2)S(C)(=O)=O)c1	nt	-0.25
CN1C(=O)CN=C(c2ccccc2)c2ccccc21	0.39	nt
O=C(CCCN1CCNCC1)c1ccc(F)cc1	0.68	0
O=c1onc(-c2ccc(Cl)cc2Cl)n1-c1cccnc1	0.64	-0.45
Cc1onc(-c2ccc(Cl)cc2)c1-c1ccnc(SCc2ccccc2)n1	0.92	0.35
C=CCNC(=O)CSc1nnc(Cc2cccc3ccccc23)n1N	nt	0.65
O=C1NCCCC2c3cc(O)ccc3OC12N1CCCCC1 (centres undefined)	0.64	-0.85
Cc1csc(NC(=O)c2sc3nc4c(c(C(F)(F)F)c3c2N)CCC4)n1	-0.005	1.1
O=C(Nc1ccc2c(C(F)(F)F)cc(=O)oc2c1)c1cc(Cl)cc(Cl)c1	43	-0.6
CCC(=O)N1N=C(c2ccc(C3=NN(C(=O)CC)C(c4cccc(OC)c4OC)C3)cc2)CC1c1cccc(OC)c1OC (centres undefined)	72	nt

Quoted from the listing.
Under AID504770, COc1ccc(OC)c(N(CC(=O)N2CCN(c3ccccc3F)CC2)S(C)(=O)=O)c1 reads -0.25
Under AID504770, O=C(Nc1ccc2c(C(F)(F)F)cc(=O)oc2c1)c1cc(Cl)cc(Cl)c1 reads -0.6

Other structures
SMILES	CapD inh	AID504770
COc1cc(C2C(C(=O)OCC3CCCO3)=C(C)NC3=C2C(=O)CC(C)(C)C3)cc(Br)c1O (centres undefined)	4.5	nt
O=C(N/N=C(\Cc1ncc[nH]1)c1ccccc1)c1cccs1	nt	-0.05
N#CC(=S)Nc1ccc(F)cc1	-0.56	-1.9
CC(Sc1nnc(Cc2cccs2)n1C)C(=O)c1ccc(NS(C)(=O)=O)cc1 (centres undefined)	nt	-0.15
Nc1cc(=O)[nH]c(SCCCCN2C(=O)c3ccccc3C2=O)n1	nt	0.45
Cc1n[nH]c(=O)nc1NC1CCCCC1	-0.025	0.3
Cc1cc(NC(=O)CSc2n[nH]c(N)n2)no1	-0.85	nt
O=C1/C(=C\C=C\c2ccco2)SC(=S)N1NS(=O)(=O)c1ccccc1	nt	0.2
CS(=O)(=O)c1sc(Br)c2c1C(=O)CCC2	0.05	-0.85
Cc1ccc(NC(=O)c2sc3ncn(CC(=O)N4CCCC(C)C4)c(=O)c3c2C)c(Br)c1 (centres undefined)	-0.61	nt
CCOC(=O)c1sc(NC(=S)NC(=O)c2cc3ccccc3o2)nc1C	0.11	-0.05
CCOC(=O)c1cc2ncc(C(F)(F)F)cc2s1	-0.75	-0.5
CCOc1ccc(CN2CCC(C(=O)NCC3CCCO3)CC2)cc1OC (centres undefined)	nt	0.1
COc1ccc(CNS(=O)(=O)NCc2ccc(OC)c(OC)c2)cc1	-0.2	nt
COc1ccc(S(=O)(=O)C(C)(C)C)cc1	nt	-0.65
COc1ccc(C)cc1N1CC(C(=O)Nc2cc(Cl)ccc2N2CCN(C)CC2)CC1=O (centres undefined)	nt	-0.25
CCOC(=O)C1CCN(C(=O)CSc2ccccc2Cl)CC1	0.18	-0.1
O=C(CN1CCCN(Cc2ccccc2)S1(=O)=O)NC1CCCC1	-0.79	-0.15
CC1CCc2nc3ccc(S(=O)(=O)N4CCC(C(=O)N5CCCCC5)CC4)cc3c(C(=O)O)c2C1 (centres undefined)	-0.33	1.1
CCc1ccc(NS(=O)(=O)c2ccc(CN3C(=O)c4cccnc4C3=O)cc2)cc1	-0.095	-0.4
O=C1Nc2ccccc2S/C1=C/c1ccc(C(=O)NC2CCCC2)cc1	0.43	0.5
CCN1CCN(C(=O)CSc2ccc(C)cc2)CC1	0.18	-0.2
Cc1cccc(NC(=O)c2cnc3ccccn3c2=O)c1	nt	0.2
Clc1ccc(Nc2nc(NC3CCCCC3)nc(N3CCOCC3)n2)cc1	-0.68	nt
CCc1cccc(C)c1N(C(=O)Cn1c(COC)nc2ccccc21)C(C)COC (centres undefined)	-0.96	-1.4
CC(=O)Oc1ccc(C2=NN(c3ccccc3)C(c3ccccc3)C2)cc1 (centres undefined)	59	nt
O=C(O)c1ccccc1OP(=O)(O)O	0.25&-0.05	0
NC(=S)c1ccc2nonc2c1	-1.5	nt
N#CC(C(=O)c1ccccc1)=C1SCCCS1	-2	0.15
O=C(O)C12CCCC(C(=O)O)(CCC1)C2	0.035	-0.6
O=C1c2cccnc2C(=O)N1Cc1ccc(S(=O)(=O)NCc2ccco2)cc1	-0.66	-0.3
NC1=NC(c2ccccc2C(F)(F)F)N(c2ccc(F)c(Cl)c2)C(N)=N1 (centres undefined)	14	0.05
COc1ccc(CC2c3cc(OC)c(OC)cc3CC[N+]2(C)CCC(=O)OCCCCCOC(=O)CC[N+]2(C)CCc3cc(OC)c(OC)cc3C2Cc2ccc(OC)c(OC)c2)cc1OC (centres undefined)	1.5	nt
O=C(O/N=C1\CCS(=O)(=O)c2sccc21)c1cccc(Cl)c1	-0.63	nt
Cc1ccccc1NC(=S)NC(=O)C(C)C	0.35	0.1
O=C(OCC#Cc1ccccc1)N1CCN(c2ccc(Cl)cc2)CC1	-0.59	nt
Cc1ccc(C(=O)OC2OCCOC2OC(=O)c2ccc(C)cc2)cc1 (centres undefined)	nt	1.5
CC(NC=C(C#N)C#N)C(C)(C)C (centres undefined)	1	nt
O=C(O)c1ccc(-c2nc3cc(Cl)ccc3s2)cc1	0.025	0.1
O=C(C(c1ccccc1)c1ccccc1)N1CCC(c2nc(-c3cccnc3)no2)CC1	-0.16	nt
Cc1ccc2c(c1)CCCN2C(=O)C1CCCN1C(=O)OC(C)(C)C (centres undefined)	nt	-0.45
CCC(=O)Nc1ccc(N2CCN(C(=O)CC(C)C)CC2)cc1	-0.03	-0.75
COc1ccc(NC(=O)c2sc3cc(Cl)ccc3c2Cl)cn1	-0.98	2.3
CCOC(=O)Cc1nc2cc(Cl)ccc2o1	0.29	-0.25
CCOC(=O)c1oc2ccccc2c1CN(C)Cc1ccccc1OC	nt	0.6
O=C(O)CSc1nnc(-c2ccccc2Br)n1C1CCCCC1	0.48	-0.35
CCN(CC)c1ccc(/C=C2/SC(=Nc3cccc(C)c3)NC2=O)c(OC)c1	-3.2	0.4
CNC(=O)C(NS(=O)(=O)c1ccc(C)cc1)C(C)C (centres undefined)	1	-1.2
COc1ccc(-c2ccc(=O)n(Cc3c(F)cccc3Cl)n2)cc1	nt	0.95
CCCCOc1ccc(C(=O)Nc2ccc3nc(SCC(=O)NCC4CCCO4)sc3c2)cc1 (centres undefined)	0.34	nt
O=C(Nc1cccc2cccnc12)c1ccc(N2C(=O)C3C4C=CC(C4)C3C2=O)cc1 (centres undefined)	-0.65	nt
COc1c2occc2c(OC)c2c(=O)cc(C)oc12	21&-0.1	0.05
